# Bioassay records deposited in PubChem BioAssay by National Center for Advancing Translational Sciences (NCATS).
# Cruzain inh Det = blocks cruzain activity in presence of Triton detergent | P25779 | purified cruzain, Z-FR-AMC fluorescence, 0.01% Triton | AID 1478 | hit rate 0.43% among 200,000 | Potency, µM, without a hit: max response, negative = inhibition, actives largely listed as inhibitors;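 note: plate controls were neutral wells for no effect and buffer without enzyme for full effect; nearly all actives have a fitted effect of over 40% in size; top concentration of the series not given in the record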
# Target sequence (P25779 123-467 limits assumed): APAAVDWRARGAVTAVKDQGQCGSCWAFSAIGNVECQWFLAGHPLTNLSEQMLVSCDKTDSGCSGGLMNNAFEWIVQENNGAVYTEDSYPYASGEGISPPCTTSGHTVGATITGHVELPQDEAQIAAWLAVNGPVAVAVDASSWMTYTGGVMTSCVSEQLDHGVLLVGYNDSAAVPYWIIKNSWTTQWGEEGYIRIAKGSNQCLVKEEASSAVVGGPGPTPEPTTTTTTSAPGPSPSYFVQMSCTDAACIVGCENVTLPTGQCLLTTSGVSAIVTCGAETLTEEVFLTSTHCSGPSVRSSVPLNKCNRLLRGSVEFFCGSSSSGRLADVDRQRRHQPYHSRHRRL
#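 Cysteine protease activity tested under reducing, mildly acidic conditions (100 mM sodium acetate pH 5.5, 5 mM DTT) plus 0.01% Triton X-100. Cruzain 1.5 nM; substrate Z-FR-AMC 2 uM; 15 min compound preincubation at room temperature.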
# Lassa entry inh = Lassa virus entry inhibition; hit rate 1.2% among 300,000; Lassa virus pseudotype entry inhibition, cell reporter; control for the full effect not named in the record; Potency, µM (doses to about 37.9 µM), for the others: top-dose activity change, negative = inhibition, usual class: inhibitors; active means well fitted inhibition curve with a large enough effect; inconclusive means small, poorly fitted or top-dose-only effect, or effect the other way; inactive means flat fitted curve, though single readings scatter; tested in HEK293 cells; note: % is set by controls: 0 for no effect and ±100 for the full control effect; nearly all actives have a fitted effect of over 50% in size; luciferase read-out
# MARV entry inh = inhibitors of Marburg virus binding or cell entry; Marburg virus pseudotyped entry inhibition, cell reporter; control for the full effect not named in the record; about a third of the inactives were read at about 46 µM; Potency, µM (titrated, usually from 37.8 µM), without a hit: top-dose activity change, negative = inhibition, most hits filed as inhibitors; AID 540276; hit rate 1.8% among 300,000; active = well fitted inhibition curve with a large enough effect; inconclusive = small, poorly fitted or top-dose-only effect, or effect the other way; inactive = flat fitted curve, though single readings scatter; tested in HEK293 cells; about a fifth of its hits are not listed in these tables; note: % is set by controls: 0 for no effect and ±100 for the full control effect; luciferase read-out
# SARS PLP yeast = inhibitors of SARS-CoV papain-like protease in yeast; S. cerevisiae expressing SARS-CoV PLpro, growth rescue; control for the full effect not named in the record; Potency, µM (titrated, usually from 32.9 µM), inactives show at the top dose activity, positive = growth rescue; hit rate 0.19% among 330,000; active means well fitted rising curve with a large enough effect; inconclusive means small, poorly fitted or top-dose-only effect; inactive means no such curve, though single readings can be large or run the other way; note: 0% is about no effect; nearly all actives have a fitted effect of over 55% in size; growth read by luminescence after 48 h
# StopGo reporter = FMDV 2A StopGo reporter, luciferase signal | human cells with a luciferase reporter of 2A StopGo recoding; control for the full effect not named in the record | Potency, µM (series often up to 57.9 µM), without a hit: top-dose signal change, negative = less light | hit rate 1.2% among 410,000 | AID 1159524; active = well fitted falling curve with a large enough effect; inconclusive = small, poorly fitted or top-dose-only effect; inactive = no such curve, though single readings can be large or run the other way; tested in HEK293T cells; note: % is set by controls: 0 for no effect and ±100 for the full control effect; nearly all actives have a fitted effect of over 45% in size; luciferase light after 4 h
# NS1 inh = influenza NS1 inhibition; S. cerevisiae slowed by influenza A NS1, growth recovery by OD600; Potency, µM (titrated, usually from 46.1 µM), without a hit: at the top dose activity, positive = more growth; hit rate 0.4% among 270,000; AID 2326; active means well fitted rising curve with a large enough effect; inconclusive means small, poorly fitted or top-dose-only effect; inactive means no such curve, though single readings can be large or run the other way; note: nearly all actives have a fitted effect of over 50% in size
#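 Compounds were scored for reversing the slow growth caused by influenza A NS1 in S. cerevisiae, measured by optical density at 600 nm. Assay medium contained 2% galactose at pH 6.0; NS1-free yeast of the same strain were the positive control.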
# Cruzain inh noDet = inhibitors of Trypanosoma cruzi cruzain without detergent. Potency, µM, without a hit: max response, negative = inhibition, usual class: inhibitors. P25779. purified cruzain, Z-FR-AMC fluorescence, no detergent. hit rate 2.3% among 200,000. AID 1476;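 note: plate controls were enzyme without inhibitor for no effect and buffer without enzyme for full effect; nearly all actives have a fitted effect of over 40% in size; top concentration of the series not given in the record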
#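 Detergent-free condition (0.00005% Triton X-100) in acetate buffer pH 5.5 with DTT. 1.5 nM enzyme and compound were pre-mixed 15 min, then 2 uM Z-FR-AMC substrate added; reaction progress from fluorescence change between first and third reads (60 s).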
# RE007 growth inh = less growth of the S. pombe RE007 Vpr strain. Potency, µM (doses to about 92.2 µM), inactives show top-dose activity change, negative = less growth. S. pombe RE007 Vpr strain, BacTiter-Glo ATP luminescence, 24 h; control for the full effect not named in the record. hit rate 0.21% among 360,000; active = well fitted falling curve with a large enough effect; inconclusive = small, poorly fitted or top-dose-only effect; inactive = no such curve, though single readings can be large or run the other way;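 note: % is set by controls: 0 for no effect and ±100 for the full control effect; nearly all actives have a fitted effect of over 50% in size; the assay follows cell death caused by Vpr and the record does not say whether a fall means rescue or toxicity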
#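 Fission yeast RE007 carrying one integrated HIV-1 vpr copy, seeded at OD 0.01 in PMG+AL medium with 23 nL pinned compound. Grown 24 h at 30 degrees; viability read by BacTiter-Glo luminescence after 5 min.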
# The depositor's hits bear a star; ? = inconclusive; · = not tested or not shown; [ ] = dose if it differs, or a comment. Unless noted, calls come from the whole dose curve; as a rule, active = well fitted curve in the direction sought with a large enough effect; inconclusive = small, poorly fitted or top-dose-only effect, or another doubt; inactive = no such curve, though single readings can be large; an effect the other way counts as inactive or inconclusive. Potency is the fitted concentration of half-maximal effect. Random draw from the library. Share with any hit: about 4.7%.
1) Cc1ccccc1OC1C(=O)N(Cc2ccc3c(c2)OCO3)C1c1sccc1C (configuration not stated)
2) Cc1cc(C)nc(SCC(=O)N/N=C/c2cccn2-c2cccc(C(F)(F)F)c2)n1
3) O=C(NCc1ccco1)c1ccc(-c2cccc(Cl)c2)o1
4) CC1=NNC(=O)C1CC(=O)N/N=C(\C)c1cccs1 (configuration not stated)
5) CC(C)(C)c1ccc(C(=O)Oc2ccccc2CCC(=O)O)cc1
6) Cc1cccc(CCNC(=O)CCc2c(C)nc3c4c(C)cc(C)nc4nn3c2C)c1
7) COc1cccc(-c2nnc(SCC(=O)NC3CCCCC3)o2)c1
8) Cc1ccc(Cl)cc1N1CCN(C(=O)CCS(=O)(=O)c2ccc3c(c2)oc(=O)n3C)CC1
9) CN(CCNC(=O)C1CCN(S(=O)(=O)c2cnc[nH]2)CC1)Cc1ccccc1
10) Cc1cccc(NC(=O)c2cccc(C(=O)Nc3cccc(C)c3)c2)c1

compound no.,1,2,3,4,5,6,7,8,9,10
Cruzain inh Det,-2.6%,-6.1%,·,·,·,-0.6%,-5.0%,-3.1%,2.5%,·
Lassa entry inh,?,4%,?,20%[46.1 µM],-19%,0%[46.1 µM],-4%[46.1 µM],-9%[46.1 µM],25%,-20%[46.1 µM]
MARV entry inh,?,?,21%[46.1 µM],-1%[46.1 µM],2%[46.1 µM],-13%[46.1 µM],0%[46.1 µM],·,-9%[46.1 µM],-13%[46.1 µM]
SARS PLP yeast,-4%,0%,-1%,4%,-2%,·,·,·,-7%,5%
StopGo reporter,-30%,?,71%[activator],-2%,13%,-11%,21%,?,-1%,-4%
NS1 inh,9%,18%,-2%,-2%,0%,·,·,·,-4%,-3%
Cruzain inh noDet,-2%,11%,·,·,·,-15%,4%,?,-2%,·
RE007 growth inh,-9%,4%,-10%,11%,10%,·,·,·,21%,2%

11) CCC(=O)N1CCc2cc(Br)c(S(=O)(=O)CCC(=O)NCCc3ccccc3)cc21
12) COC(=O)c1ccc(N2CCCCC2)c(NC(=O)c2ccco2)c1
13) COc1ccc(C(=O)C[n+]2cccc(C)c2C)cc1[N+](=O)[O-]
14) O=C(O)c1sccc1S(=O)(=O)N1CCN(c2ccc(C(F)(F)F)cn2)CC1
15) CCOP(=O)(c1ccc(N(C)C)cc1)C(O)c1ccccc1 (configuration not stated)
16) Cc1cnc(C(=O)Nc2ccc(-n3cnnn3)cc2)cn1
17) Cc1ccc(C)c(NS(=O)(=O)c2cc(C(=O)Nc3ccccc3-c3ccccc3)ccc2Cl)c1
18) O=C(NCCC1=CCCCC1)C1CCN(S(=O)(=O)c2ccc(-n3cnnn3)cc2)CC1
19) CCOc1ccccc1CNC(CC)CO (configuration not stated)
20) C=CCn1nnnc1SCC(=O)Nc1ccc(C(=O)OC)cc1

compound no.,11,12,13,14,15,16,17,18,19,20
Cruzain inh Det,·,·,·,·,4.1%,-13%,3.9%,1.5%,·,·
Lassa entry inh,-2%[46.1 µM],·,-1%,29%[46.1 µM],9%,14%,?,7%,12%,8%
MARV entry inh,14%[46.1 µM],?,1%[46.1 µM],2%[46.1 µM],?,4%,?,13%,3%,1%
SARS PLP yeast,·,1%,0%,0%,2%,-3%,-3%,-1%,0%,19%
StopGo reporter,10%,?,-6%,-3%,-12%,41%[activator],·,-2%,-18%,4%
NS1 inh,·,0%,-3%,-3%,0%,0%,?,-2%,2%,1%
Cruzain inh noDet,·,·,·,·,-1%,-6%,?,-9%,·,·
RE007 growth inh,-13%,6%,14%,13%,15%,9%,-10%,-5%,-7%,11%

21) CCC(C)Sc1nnc(CSc2nc3nc(C)cc(C)n3n2)o1 (configuration not stated)
22) Cc1ccnc(N/N=C/c2ccco2)n1
23) CCCc1nnc(-c2cc(OC)c(OC)c(OC)c2)o1
24) Cc1ccc(N2C(=O)C3C4C=CC(CNC(=S)Nc5cccc(Cl)c5)(O4)C3C2=O)cc1 (configuration not stated)
25) COc1ccc(NC(=O)COC(=O)c2c(-c3ccccc3)noc2C)cc1
26) C=CCOc1ccccc1NC(=O)CN1C(=O)CNC1=O
27) COc1ccc(NC(=O)Cn2cc(S(=O)(=O)N3CCN(c4ccccc4F)CC3)c3ccccc3c2=O)cc1Cl
28) COc1cccc(C(=O)Nc2nc(-c3ccc4c(c3)OCO4)cs2)c1
29) COCCn1c(SCc2nc(N)nc(Nc3ccccc3C)n2)nc2ccccc2c1=O
30) CCCOc1ccc(C2C3=C(CCCC3=O)N(CC(=O)O)C3=C2C(=O)CCC3)cc1OCC

compound no.,21,22,23,24,25,26,27,28,29,30
Cruzain inh Det,6.8%,-4.0%,-0.9%,-10%,-3.9%,·,-1.3%,-4.0%,2.5%,·
Lassa entry inh,1%,?,-3%,?,-26%,11%[46.1 µM],22%[46.1 µM],·,-17%,3%[46.1 µM]
MARV entry inh,12%,?,?,?,1%,0%[46.1 µM],?,·,?,-4%[46.1 µM]
SARS PLP yeast,-7%,0%,4%,-79%,1%,0%,·,-11%,5%,6%
StopGo reporter,·,·,-9%,-8%,-10%,14%,1%,-7%,-21%,-2%
NS1 inh,-2%,-1%,3%,0%,-6%,-10%,·,-2%,-6%,12%
Cruzain inh noDet,3%,-8%,0%,?,1%,·,7.9µM*,?,17%,·
RE007 growth inh,-5%,-15%,-6%,10µM*,7%,-8%,·,-15%,2%,11%

31) COc1cc(=O)[nH]c(=O)n1CC(=O)c1ccccc1
32) Cc1ccc(C)c(CN2C(=O)c3ccccc3S(=O)c3ccc(C(=O)N4CCN(c5cccc(Cl)c5)CC4)cc32)c1 (configuration not stated)
33) Cc1ccc(NC2CCCN(C(=O)c3cnsn3)C2)cc1C (configuration not stated)
34) C=CCOc1ccccc1CN(C(=O)CCl)c1ccc2c(c1)OCO2
35) CC(NCc1ccccc1C(F)(F)F)C(O)c1ccccc1 (configuration not stated)
36) C=C(C)Cn1c(CCNC(=O)C(C)C)nc2ccccc21
37) COc1ccc(N(CC(=O)NC2CCCC2)C(=O)Cn2nnc(-c3ccc(OC)c(OC)c3)n2)cc1
38) COc1cccc(C(=O)Nc2cc(C(=O)NCCc3ccccc3)ccc2Cl)c1
39) Cc1ccc(S(=O)(=O)CCC(=O)Nc2ccc(F)cc2)cc1
40) CCOc1ccc(NC(=O)c2nnn(CC(=O)Nc3ccccc3OC)c2N)cc1

compound no.,31,32,33,34,35,36,37,38,39,40
Cruzain inh Det,-4.3%,0.3%,·,·,·,8.1%,·,2.4%,·,1.9%
Lassa entry inh,0%,?,·,-19%,14%[46.1 µM],-11%,-20%,11%,1%[46.1 µM],2%
MARV entry inh,-4%[46.1 µM],?,·,?,?,-1%,-27%[46.1 µM],11%,-12%[46.1 µM],-3%
SARS PLP yeast,-11%,·,1%,4%,0%,1%,2%,-1%,15%,8%
StopGo reporter,-14%,?,7%,?,7%,-22%,12%,·,4%,22%
NS1 inh,4%,·,-11%,16%,6%,5%,-5%,-5%,-3%,-1%
Cruzain inh noDet,1%,-2%,·,·,·,-6%,·,1%,·,1%
RE007 growth inh,-2%,·,-1%,-8%,-14%,-12%,-7%,-4%,1%,22%

# Some of the entries so far, bar-delimited:
No. | Compound | Cruzain inh Det | Lassa entry inh | MARV entry inh | SARS PLP yeast | StopGo reporter | NS1 inh | Cruzain inh noDet | RE007 growth inh
6 | Cc1cccc(CCNC(=O)CCc2c(C)nc3c4c(C)cc(C)nc4nn3c2C)c1 | -0.6% | 0%[46.1 µM] | -13%[46.1 µM] | · | -11% | · | -15% | ·
40 | CCOc1ccc(NC(=O)c2nnn(CC(=O)Nc3ccccc3OC)c2N)cc1 | 1.9% | 2% | -3% | 8% | 22% | -1% | 1% | 22%
2 | Cc1cc(C)nc(SCC(=O)N/N=C/c2cccn2-c2cccc(C(F)(F)F)c2)n1 | -6.1% | 4% | ? | 0% | ? | 18% | 11% | 4%

# Further results
41) Cc1ccn2cc(-c3cccc(S(=O)(=O)N4CCCCC4)c3)nc2c1
42) CCc1ccccc1Nc1ncnc2c1cnn2-c1ccc(C)cc1C
43) CC1CN(Cc2cnc(Cl)s2)CC(C)O1 (configuration not stated)
44) COc1cnc(-c2ccccn2)nc1Oc1ccc(Cl)cc1
45) O=C(Nc1ccc[n+](CC(=O)c2cccc3ccccc23)c1)c1ccccc1
46) CCOCCc1nn2c(=O)cc(COC(=O)c3ccco3)nc2s1
47) CCCn1nnc(NC(=O)Cc2ccccc2)n1
48) COC(=O)Nc1ccc(N=C(N)N[N+](=O)[O-])cc1
49) Cc1ccc(CN2CC(C(=O)Nc3ccccc3N3CCCC3)CC2=O)cc1 (configuration not stated)
50) CCOC(=O)c1c(-c2ccccc2Cl)csc1NC(=O)CSc1nc(C)cc(=O)[nH]1
51) COc1cccc(OC)c1C(=O)Nc1sc2c(c1C(N)=O)CCN(Cc1ccccc1)C2
52) CCn1c(O)c(C(C#N)=C2N=c3ccccc3=N2)c2ccccc21

compound no.,41,42,43,44,45,46,47,48,49,50,51,52
Cruzain inh Det,·,-3.8%,·,5.7%,-13%,-1.0%,4.9%,·,·,-12%,·,0.3%
Lassa entry inh,-26%[46.1 µM],-24%[46.1 µM],·,-10%,?,20%[46.1 µM],13%,?,-2%,?,·,6%
MARV entry inh,?,·,·,-13%,?,·,-22%,2%,0%[46.1 µM],8%,·,-10%
SARS PLP yeast,3%,·,-1%,-18%,2%,·,1%,1%,1%,20%,1%,19%
StopGo reporter,-3%,-9%,0%,-6%,?,-2%,19%,-11%,-15%,-15%,?,-22%
NS1 inh,-5%,·,-1%,-52%,39%,·,-1%,·,·,4%,3%,-1%
Cruzain inh noDet,·,-1%,·,6%,?,5%,0%,·,·,?,·,-4%
RE007 growth inh,-2%,·,-4%,-20%,31%,·,6%,19%,11%,·,-2%,7%
